# Compound activity: PubChem BioAssay, ICCB-Longwood Screening Facility, Harvard Medical School
# AID504770 = growth inhibition of E. coli YBA685, primary screen, V. cholerae RctB inhibitors. E. coli YBA685 rctB-dependent plasmid, OD600 growth, 3 h; active compounds read low. z-score (no concentration beside the values). hit rate 0.27% among 130,000. AID 504770, 2011;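 active = z-score under -2 on both plates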;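 note: wells of about 30 µL received 100 nL stock; score is relative to mean and SD of the test wells; the first replicate is given; strong numbers were not always called active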
# CapD inh = Bacillus anthracis CapD inhibitors, primary screen, biochemical, fluorescence intensity; hit rate 0.23% among 140,000; purified CapD enzyme, fluorescence intensity read-out; active compounds read low; some hits fall short of the stated cut; AID 492967, 2010; CapD gamma-glutamyltranspeptidase (Bacillus anthracis Ames Ancestor); z-score (no concentration beside the values);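 active = z-score under -4 in either of two replicates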;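 note: stock transfer was 100 nL into about 40 µL; score is relative to mean and spread of the plate; one replicate is shown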
# Active calls of the source: *; / = no result given. Random draw from the library; overall some 0.39% were active at least once.
SMILES,AID504770,CapD inh
O=C(O)C1Cc2c([nH]c3ccccc23)C(c2ccccc2[N+](=O)[O-])N1 (stereo not given),/,16.7
CCc1ccc(NC(=O)N(CCN(C)C)C(C)c2cccnc2)cc1 (stereo not given),0.9,0.545
CC(=O)N1N=C(c2ccncc2)OC1(C)C,-0.1,/
COC(=O)c1ccc(N/C=C2/CCN(c3ccc(Cl)cc3)C2=O)cc1,/,19.6
CCC(=O)N1N=C(c2c(-c3ccccc3)c3cc(Br)ccc3[nH]c2=O)CC1c1ccc(OC)cc1 (stereo not given),/,0.485
O=C(CCSCc1ccccc1Cl)NCc1ccco1,-1.05,/
CCOC(=O)c1nn(-c2ccccc2)c(C(=O)OCC)c1N(C(=O)CC)C(=O)CC,-0.65,-1.19
Cc1c(NC(=O)C2CCN(c3ccc(C(F)(F)F)cn3)CC2)cccc1C(F)(F)F,/,-0.5
Cn1c(N)c(C(=O)CSc2nc3sc4c(c3c(=O)n2Cc2ccco2)CCCC4)c(=O)[nH]c1=O,-0.3,/
COC(=O)c1cc(S(=O)(=O)NCc2ccccc2)cn1C,-0.15,1.3
Cc1ccc(Nc2nc(N3CCOCC3)nc(C)c2[N+](=O)[O-])cc1Cl,/,0.115
COCCCNC(=S)N/N=C/c1ccccc1Cl,/,-2.58
CCC(=O)Nc1ccc2c(c1)C(=O)NC2=O,-2.8,/
C(=C\c1cccs1)/c1ccccc1,-0.4,19.1
CC1CC(C)CN(CCCNC(=O)c2ccc3c(SCC(=O)O)c4c(nc3c2)CCC4)C1 (stereo not given),0.1,-1.49
Cc1ccc(S(=O)(=O)N(C)c2ccccc2)s1,-0.2,-0.07
CCOP(=O)(c1ccccc1)c1nc(-c2ccc(Cl)cc2)oc1NCc1ccccc1 (stereo not given),-0.2,25.1
COc1ccc(Cc2nnc(Nc3ccc(C)cc3)o2)cc1OC,0.9,0.48
COc1ccc(NC(=O)c2ccc3c(-c4ccccc4)onc3c2)cc1,0.85,0.11
COc1ccc(/C=C2\N=C(c3ccc(Cl)cc3)N(c3ccccc3)C2=O)cc1OC,/,-0.215
CC1CC(C)(C)NC(=S)N1CC(=O)N(C)Cc1ccccc1 (stereo not given),/,0.805
CCN(CC(=O)Nc1cccc(OC)c1)C(=O)C1CCN(C(=O)Nc2ccccc2)CC1,-0.7,/
N#Cc1ccc(COC(=O)C2CCCCN2S(=O)(=O)c2cccc3nsnc23)cc1 (stereo not given),-0.9,/
CCCNC(=O)Nc1ccc2snnc2c1,-1,26.7
COc1cccc(NC(=S)N(CCC(C)C)C2CCN(C(C)=O)CC2)c1,-0.45,0.165
# Carrying on.
SMILES,AID504770,CapD inh
c1cnc(Sc2nnc3ccccn23)nc1,-0.25,/
O=C(Cn1cnc2sc3c(c2c1=O)CCCC3)NCC(=O)N1CCN(Cc2ccccc2)CC1,/,-0.53
CNc1cc(Nc2ccc(C)cc2)c2c3c(onc13)-c1ccccc1C2=O,/,-0.175
N#CC(C(=O)CN1CCOCC1)c1ccccc1 (stereo not given),-0.9,-0.48
O=C(O)c1ccc2ccccc2n1,-0.05,-0.015
O=S(=O)(Nc1cc(Cl)ccc1N1CCCCC1)c1cccc2nsnc12,0.4,/
CCc1ccccc1NC(=O)CC1SC(N)=NC1=O (stereo not given),-0.6,-0.8
Cc1c2cnn(-c3ccccc3)c(=O)c2c(C)n1CCCC(=O)N1CCCCC1,0.05,0.36
CCC(=O)OC1=C2C(=Nc3c(c(=O)n(C)c(=O)n3C)C2c2ccccc2)c2ccccc21 (stereo not given),2.6,-0.735
CCOC(=O)C1=C(c2ccccc2)OC(N)=C(C(=O)OCCOC)C12C(=O)Nc1ccc(Br)cc12 (stereo not given),/,-0.31
Cc1ccc2nc(SCCCC#N)[nH]c2c1,0.05,/
CCOC(=O)c1ccc(-c2ccc(/C=N/NC(=S)Nc3ccc(OC)cc3)o2)cc1,/,-0.33
COC(=O)c1c[nH]c2ccccc12,2.75,0.095
Cc1ccnc(NS(=O)(=O)c2ccc3c(c2)CCO3)c1,0.05,1.04
COCC(=O)Nc1ccccc1C(=O)N1CCN(c2ccccc2)CC1,-0.6,0.055
CC(=O)N1CCc2cccc(S(=O)(=O)N(C)C)c21,/,-0.645
CC(C)N1C(=O)C(O)(CC(=O)c2ccccc2)c2ccccc21 (stereo not given),-0.9,-0.49
O=C(Cc1cccc(C(F)(F)F)c1)NNc1c(F)c(F)cc(F)c1F,0.35,/
Cc1cc2c(cc1C)-c1nc3ccccc3cc1C2=Nc1ccccc1,/,-0.325
CN(C)c1c2c(c(C#N)c3nc4ccccc4n13)CCC2,1.6,3.88
O=C(Nc1ccccc1)N1CCN(c2ncccn2)CC1,-0.75,-0.64
Cc1ccc(N(Cc2ccc(C(=O)NCc3ccco3)cc2)S(C)(=O)=O)cc1C,0,/
Cc1ccc(N(Cc2ccco2)C(=O)CNS(=O)(=O)c2ccc(Cl)cc2)cc1,-1.2,-0.46
Cc1cccc(C)c1NC(=S)Nc1ccc(C(C)C)cc1,/,-0.935
COc1cc(Br)c(CSc2n[nH]c(=O)n2C2CC2)cc1OC,0.75,/
# Next part
SMILES,AID504770,CapD inh
O=C(COn1nnc2ccccc21)N1CCc2ccccc2C1,2.5,-0.26
O=S(=O)(c1ccc(Cl)cc1)N1CCCN(c2ccc(C(F)(F)F)cn2)CC1,-0.55,0.095
Cc1cc(NC(=O)CSC2=NC(=O)C(Cc3ccccc3)C(=O)N2)no1 (stereo not given),/,-0.68
CN1CCN(c2ccc(CNC(=O)c3cc(F)cc4c3OCOC4)cc2)CC1,-0.5,0.445
CC(C)(C)C(=O)OCOC(=O)[C@@H]1N2C(=O)[C@@H](N=CN3CCCCCC3)[C@H]2SC1(C)C,/,0.45
O=C(/C=C/c1ccc(OC(F)F)cc1)OCc1ccco1,-0.7,/
CC1=NN(c2ccccc2)C(=O)C1/C(=N\NC(=O)c1ccccc1)c1ccc(Br)cc1 (stereo not given),/,5.94
CC1=C(C(=O)OCC2CCCO2)C(c2ccccc2)NC(=O)N1 (stereo not given),2.15,/
CC(C)(c1cc(CN2CCCCC2)c(O)c(CN2CCCCC2)c1)c1cc(CN2CCCCC2)c(O)c(CN2CCCCC2)c1,/,-0.09
FC(F)(F)c1cccc(N=Cc2cccnc2)c1,-0.05,0.825
Cc1ccc(-c2nnn(CC(=O)NN)n2)cc1Cl,-0.05,0.38
CC1(C)OC(=O)C(=Cc2ccc[nH]2)C(=O)O1,-0.15,-1.59
N#Cc1ccc(C#CCOC(=O)Nc2ccc(OC(F)(F)F)cc2)cc1,0,0.12
CCOC(=O)c1sc(NC(=O)CSc2n[nH]c(CC)n2)nc1C,/,-0.55
COc1ccc(C2CC(O)CC(c3ccc(OC)cc3)C23C(=O)NC(=O)NC3=O)cc1 (stereo not given),0.1,0.34
CC(=O)NCc1c(Cl)cccc1Cl,0.05,0.435
CC(=O)N1CN(C(C)=O)CN(C(C)=O)C1,0.4,0.19
Cc1cc(C)c2nc3sc(C(=O)N4CCOCC4)c(N)c3cc2c1,-0.75,/
O=[N+]([O-])c1ccc(-c2n[nH]c(=S)s2)o1,/,-2.22
Cc1ccc(-c2ccc(C3Nc4ccc5ccccc5c4C4=C3C(=O)CC(C)(C)C4)o2)cc1Cl (stereo not given),/,5.55
CCNc1cc(Nc2ccccc2OC)c([N+](=O)[O-])c2nonc12,/,-0.205
COc1cccc(NC(=O)c2ccc3c(c2)CCCC3)c1,-0.5,0.055
COc1cc(CN2CCN(C(=O)COc3ccccc3)CC2)cc(OC)c1OC,0.35,-0.12
CCOc1ccc(C(=O)NC(C(=O)Nc2ccc(S(=O)(=O)N(C)C)cc2)C(C)C)cc1 (stereo not given),-5*,/
O=C(c1cc(C2CC2)on1)N1CCCC1,-1,-0.155
# The listing continues:
SMILES,AID504770,CapD inh
O=C(N1CCCC1)C12CC3CCC(CC(C3)C1)C2,-0.55,-0.085
CCCCOc1ccc(C2C(N3C(=O)c4ccccc4C3=O)C(=O)N2c2ccc(Cl)cc2C)cc1 (stereo not given),/,-0.24
Cc1onc(-c2ccccc2Cl)c1C(=O)NC1Cc2ccccc2C1,/,-0.005
NC(=S)NN=C1c2cc(OCCN3CCCCC3)ccc2-c2ccc(OCCN3CCCCC3)cc21,/,-1.18
O=c1[nH]c2ncnn2c(-c2ccc(Cl)cc2)c1-c1ccc(F)cc1,0.15,0.925
CCCC1=C(C(=O)OCC)C2(C(=O)Nc3ccccc32)C(C#N)=C(N)O1 (stereo not given),/,0.165
Cc1cc2c(=O)n(C)c(SCC(N)=O)nc2s1,-0.75,-0.595
COc1ccc(C2C3=C(CCCC3=O)Nc3[nH]c(=O)[nH]c(=O)c32)cc1 (stereo not given),-0.85,4.86
NC(=O)COC(=O)CC12CC3CC(CC(C3)C1)C2,-1.15,/
Cc1ccc(Cl)cc1NC(=S)NCCO,/,-0.59
COC(=O)c1sc(SCCOC(=O)c2ccccc2Cl)c2c1CC(C)(C)CC2=O,-0.2,-0.01
CC1(C)CC(=O)C=C(NNc2ccccn2)C1,-0.55,0.025
Nc1cc(N)nc(SCC(=O)N2CCc3ccccc32)n1,-1.15,/
CC(C)Cc1ccc(C(C)C(=O)Nc2nccs2)cc1 (stereo not given),0.4,0.215
CCOC(=O)C1=C(N)OC2=C(C(=O)CC(C)(C)C2)C1c1ccccc1 (stereo not given),0.05,/
O=S(=O)(c1cccc(C(F)(F)F)c1)c1cnc(-c2ccccn2)nc1-c1ccccn1,/,0.11
Cn1cc(CCCC(=O)NCc2ccccc2)c2ccccc21,0.3,-0.295
CCCC1=C(C(=O)OC)C(c2ccccc2)n2c(nc3ccccc32)N1 (stereo not given),0.6,/
Cc1nc(C(=O)NCC(=O)c2ccccc2)c(C(F)(F)F)o1,0.05,0.865
CC1CN(C(=O)Nc2cccc(C(F)(F)F)c2)CC(C)O1 (stereo not given),-0.3,/
CC(=O)NC(=O)c1cc2cc([N+](=O)[O-])ccc2oc1=Nc1cccc2ccccc12,/,-0.265
O=C(CN1Cc2ccccc2C1=O)N1CC=C(c2ccccc2)CC1,0.05,-1.75
CC1(C)COC(c2cccn2Cc2ccc(F)cc2Cl)=N1,-0.45,-0.275
Cc1ccc(NC(=O)c2oc3ccc(S(=O)(=O)N4CCCC4)cc3c2C)cc1C,-0.35,73.2
CCOc1cccc(N2C(=O)NC(=O)/C(=C\c3cc(Br)c(N4CCOCC4)o3)C2=O)c1,/,0.295
# The results go on.
SMILES,AID504770,CapD inh
C(=NCc1ccccc1)c1ccc2c(c1)OCO2,/,0.34
CCN(CC)S(=O)(=O)c1ccc(C(=O)Nc2c3c(nn2-c2ccc(Cl)cc2)CSC3)cc1,/,-1
CCOC(=O)C1=C(C)NC2=C(C(=O)C(C(=O)OCC)C(c3ccccc3OC)C2)C1c1ccc(OCC)cc1 (stereo not given),/,6.61
CCOC(=O)N1CCN(C(=O)c2cccc(NC3=NC4CS(=O)(=O)CC4S3)c2)CC1 (stereo not given),-0.25,-0.62
CN1CCN(C(CNC(=O)c2ccc(Cl)cc2)c2ccc3c(c2)OCO3)CC1 (stereo not given),1.6,/
Cc1ccc(NC2=CC(=O)NC2)cc1,0.2,-0.35
CC1CCc2nc(NCCO)nc(C(F)(F)F)c2C1 (stereo not given),-0.05,3.62
COC(=O)c1c(N2C(=O)C3CC(C)=C(C)CC3C2=O)sc(C)c1C (stereo not given),1.35,-1.02
Oc1ccc(Br)cc1C1Nc2ccccc2S1 (stereo not given),0.35,2.32
Cc1ccc(NC(=O)CN(C)C(=O)CSc2nnc(-c3ccc4c(c3)OCO4)o2)cc1,0.4,/
S=C(NCC1CCCO1)N/N=C/c1ccc(Cl)cc1 (stereo not given),/,-1.39
CCCCOC(=O)Nc1ccc(I)cc1C,-0.1,0.2
CCOCCCn1nnc2c(=O)[nH]c(C(=O)NCc3cccc(Cl)c3)nc21,1.05,0.18
COc1ccc(C2c3c(n(C)c4ccccc34)C(=O)N2CC(=O)NCc2cccs2)cc1 (stereo not given),-0.05,4.04
CC(C)c1ccc(CN2CCNCC2)cc1,-0.1,/
O=C(NCC1(c2ccccc2)CCOCC1)C1COc2ccccc2O1 (stereo not given),0.55,0.13
Oc1ccccc1N=CC=Nc1ccccc1O,-0.9,-2.17
CCNC(=O)c1sc(C)nc1N,-0.8,-0.74
O=C(c1ccc(S(=O)(=O)N2CCCCC2)cc1)N1CCc2ccccc2C1,-0.55,0.89
O=C1CCC(=O)N1c1ccccc1Oc1ccc(Cl)cc1Cl,/,-0.095

# Part of the list above in order of heavy-atom count, falling:
SMILES,AID504770,CapD inh
CCOC(=O)C1=C(C)NC2=C(C(=O)C(C(=O)OCC)C(c3ccccc3OC)C2)C1c1ccc(OCC)cc1 (stereo not given),/,6.61
COc1ccc(C2c3c(n(C)c4ccccc34)C(=O)N2CC(=O)NCc2cccs2)cc1 (stereo not given),-0.05,4.04
Cc1ccc(NC(=O)CN(C)C(=O)CSc2nnc(-c3ccc4c(c3)OCO4)o2)cc1,0.4,/
CCOC(=O)N1CCN(C(=O)c2cccc(NC3=NC4CS(=O)(=O)CC4S3)c2)CC1 (stereo not given),-0.25,-0.62
CN1CCN(C(CNC(=O)c2ccc(Cl)cc2)c2ccc3c(c2)OCO3)CC1 (stereo not given),1.6,/
CCOCCCn1nnc2c(=O)[nH]c(C(=O)NCc3cccc(Cl)c3)nc21,1.05,0.18
O=C(NCC1(c2ccccc2)CCOCC1)C1COc2ccccc2O1 (stereo not given),0.55,0.13
COC(=O)c1c(N2C(=O)C3CC(C)=C(C)CC3C2=O)sc(C)c1C (stereo not given),1.35,-1.02
O=C1CCC(=O)N1c1ccccc1Oc1ccc(Cl)cc1Cl,/,-0.095
CC1CCc2nc(NCCO)nc(C(F)(F)F)c2C1 (stereo not given),-0.05,3.62
Oc1ccccc1N=CC=Nc1ccccc1O,-0.9,-2.17
Oc1ccc(Br)cc1C1Nc2ccccc2S1 (stereo not given),0.35,2.32
CCCCOC(=O)Nc1ccc(I)cc1C,-0.1,0.2
Cc1ccc(NC2=CC(=O)NC2)cc1,0.2,-0.35
CCNC(=O)c1sc(C)nc1N,-0.8,-0.74
